Screening results as filed in PubChem.
CHT allo act: CHT positive allosteric modulators, primary screen, cell-based, membrane potential dye, choline EC20; High affinity choline transporter 1 (Homo sapiens), Q9GZV3; CHT-expressing cells; stronger effect = higher value; LV-AA mutant CHT in HEK293 cells; B-score at 10 µM; 0.49% of 310,000 active;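 active = initial fluorescence not abnormally high and integrated response B-score, plate-corrected, over 3 SD above library mean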
Target sequence (Q9GZV3 whole entry, looked up): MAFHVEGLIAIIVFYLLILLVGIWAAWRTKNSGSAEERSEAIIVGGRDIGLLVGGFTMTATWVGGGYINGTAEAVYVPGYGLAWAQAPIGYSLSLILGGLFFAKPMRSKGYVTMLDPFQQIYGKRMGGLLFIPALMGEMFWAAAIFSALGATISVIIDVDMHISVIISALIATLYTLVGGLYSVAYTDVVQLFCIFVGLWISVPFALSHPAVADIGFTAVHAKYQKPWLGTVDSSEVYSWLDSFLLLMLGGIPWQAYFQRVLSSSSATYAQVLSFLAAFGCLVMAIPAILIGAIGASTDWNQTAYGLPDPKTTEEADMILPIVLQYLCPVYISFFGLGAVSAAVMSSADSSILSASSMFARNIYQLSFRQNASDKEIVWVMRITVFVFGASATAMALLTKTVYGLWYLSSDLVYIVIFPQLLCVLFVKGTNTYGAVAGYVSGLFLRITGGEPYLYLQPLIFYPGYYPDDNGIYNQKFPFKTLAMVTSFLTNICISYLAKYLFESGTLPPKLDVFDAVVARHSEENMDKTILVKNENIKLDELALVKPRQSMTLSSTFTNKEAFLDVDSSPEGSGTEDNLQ
CHT block: inhibitors of human choline transporter CHT; High affinity choline transporter 1 (Homo sapiens), Q9GZV3; CHT-expressing cells, membrane potential dye, choline response; stronger effect = lower value; B-score at 10 µM; 0.86% of 310,000 active; AID 488975, 2010;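 active = B-score over 3 SD under the library average, and starting fluorescence ratio not unusually high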;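 note: choline stimulus applied at its EC90 after an EC20 pre-addition; B-score computed on integrated fluorescence ratio after choline addition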
Calls only; i = inactive. The list is partial; most or all hits stand in other tables.

Compound,CHT allo act,CHT block
CCOC(=O)c1ccc(NC(=O)CSc2nnc(COc3ccccc3OC)n2CC)cc1,i,i
Cc1ccc(C(=O)N2CCN(c3ccc(NC(=O)Cc4ccccc4)cc3)CC2)cc1,i,i
COc1ccc(S(=O)(=O)N2CCN(C(=O)NC3CCCCC3)CC2)cc1OC,i,i
CCN(C(=O)/C=C/c1ccccc1)C1CCCCC1,i,i
CCCNC(=O)C(=O)N/N=C/c1ccc(OCc2ccccc2)cc1,i,i
Cc1ccc(NS(=O)(=O)c2ccc(C(=O)NCCCN3CCCC3=O)cc2)cc1,i,i
CCC/C(O)=C1\C(=O)CCCC1=NC(C)C(=O)O (stereo not given),i,i
c1ccc(-c2nnc3n2N=C(c2ccc4c(c2)OCO4)CS3)nc1,i,i

Continued:
Compound,CHT allo act,CHT block
COc1ccc(N2CN=C3SCC(=O)N3C2)cc1,i,i
CC(=O)N(OCc1ccc(OC(C)C)c(Cl)c1)C(C)=O,i,i
CN(C)C(=O)N1CCC(C(=O)NCc2ccccc2Cl)CC1,i,i
CCC(=O)N1CCc2cc(S(=O)(=O)NCCC(=O)N3CCc4ccccc4C3)ccc21,i,i
CC(C)c1ccc(C2NC(=S)NC3=C2C(=O)CCC3)cc1 (stereo not given),i,i
O=C(Nc1ccc(Cl)cc1)C1CCN(C(=O)c2cccs2)CC1,i,i
CNC(=O)COC(=O)/C=C/c1ccc(F)cc1,i,i
C=CCN(c1cccc(C(F)(F)F)c1)S(=O)(=O)c1cccc(C(=O)OCC(=O)Nc2ccccc2)c1,i,i

Carrying on:
Compound,CHT allo act,CHT block
CC(C)/C(=N\NS(=O)(=O)c1ccc(Br)cc1)c1cccs1,i,i
CC(O)c1nc2ccccc2n1CC(=O)Nc1ccc2c(c1)OCCO2 (stereo not given),i,i
COc1cc(NS(=O)(=O)c2ccc(Nc3nc(-c4ccccn4)cs3)cc2)nc(OC)n1,i,i
CSc1nnc2ccc(-c3cccs3)nn12,i,i
CCCNC(=O)c1[nH]c(C)c(C(C)=O)c1C,i,i
[O-]C1=N/[N+](=C/c2ccccc2Cl)CC1,i,i
O=C(Nc1ccc(F)cc1)c1cccc(NC(=O)C2C3CC4OC(=O)C2C4C3)c1 (stereo not given),i,i
CCNC(=S)Nc1cc(C(=O)N2CCCC2)ccc1N1CCCC1,i,i

(further entries)
Compound,CHT allo act,CHT block
CCOc1ccc(C2=Nn3c(nnc3-c3ccc(OC)cc3)SC2)cc1,i,i
NCCCC(=O)O,i,i
c1ccc(-c2cc3ccccc3nc2N2CCCC2)cc1,i,i
COc1ccc(C2NN=C(c3ccc(C)cc3)S2)cc1OC (stereo not given),i,i
COc1ccccc1-n1cnnc1SCC(=O)Nc1cc(C(C)(C)C)nn1-c1ccccc1,i,i
CC(C)C[C@H](NC(=O)N1CC(=O)Nc2ccccc21)C(=O)N[C@H](Cc1c[nH]c2ccccc12)C(=O)O,i,i
S=C(NCCC1=CCCCC1)Nc1ccccc1,i,i
Cc1[nH]c2ccccc2c1C(=O)C(=O)N1CCOCC1,i,i

(cont.)
Compound,CHT allo act,CHT block
CCOc1ccc(C(=O)CCC(=O)N2CCN(c3ncccn3)CC2)cc1,i,i
CCC(C)C(NS(=O)(=O)c1ccc(C)cc1)C(=O)Oc1ccc2c3c(c(=O)oc2c1)CCC3 (stereo not given),i,i
O=C(C1CCCN(S(=O)(=O)c2ccc([N+](=O)[O-])cc2)C1)N1CCCCC1 (stereo not given),i,i
CC(=O)Nc1ccc(S(=O)(=O)NCc2ccc(C)n2C)cc1,i,i
O=C(Nc1ccccc1)c1ccncc1,i,i
O=C(Nc1ccc2c(c1)OCO2)c1cccc2c1C(=O)N(Cc1cccnc1)C2,i,i
CCOC(=O)N1CCN(CCC(=O)Nc2ccc(C)cc2)CC1,i,i
Cc1ccc(-n2c(SCC(=O)NC3CCS(=O)(=O)C3)nc3ccccc3c2=O)cc1C (stereo not given),i,i

New compounds follow.
Compound,CHT allo act,CHT block
Cc1ccc(N2Cc3ccccc3C2=S)cc1,i,i
Cn1c(=O)c2c(nc(NCCO)n2CCCc2ccccc2)n(C)c1=O,i,i
CCOc1ccc(NC(=S)NC(=O)c2cccnc2)c([N+](=O)[O-])c1,i,i
O=c1cc2c(nn1Cc1ccccc1Cl)-c1ccccc1CC2,i,i
Cc1ccc(C(=O)N2CCC(C(=O)NCc3ccco3)CC2)cc1,i,i
O=C(O)c1cccc(-n2cccc2/C=C/[N+](=O)[O-])c1,i,i
CCC(=O)Nc1sc(Cc2ccccc2)c(C)c1C(N)=O,i,i
CN(/N=C/c1ccncc1)C1=NCCN1,i,i

The list continues.
Compound,CHT allo act,CHT block
CC(=O)Nc1ccc(/C=N/NC(=O)c2cc3cc(C)ccc3nc2C)cc1,i,i
CN1CCN(C(=O)c2ccc(COc3ccc(Cl)cc3Cl)cc2)CC1,i,i
Cc1ccsc1CN(C)C(=O)C1CCC(=O)N(CCc2cccc(F)c2)C1 (stereo not given),i,i
CC1(C)SC2c3ccccc3C(=O)N2[C@@H]1C(=O)NCc1ccco1 (stereo not given in full),i,i
CCCCN(C(=O)NC(=O)Nc1nc2ccc(OC)cc2s1)S(C)(=O)=O,i,i
Cc1[nH]c(=O)[nH]c(=O)c1S(=O)(=O)N1CCCC1,i,i
COc1ccc(-n2cnnc2SCCC#N)cc1,i,i
CCOc1ccc(S(=O)(=O)Nc2ccc(S(=O)(=O)N3CCCCC3)cc2)cc1,i,i

Further records:
Compound,CHT allo act,CHT block
CCc1nnc(NC(=O)CSc2nnc(-c3ccco3)n2CCOC)s1,i,i
COCC(=O)Nc1ccc(S(=O)(=O)NCCc2ccccc2)cc1,i,i
Cn1c(=O)c2c(nc(SCC(=O)NCc3ccc4c(c3)OCO4)n2Cc2ccccc2)n(C)c1=O,i,i
COc1ccccc1CN1CCC(n2nccc2NC(=O)c2ccccc2Cl)CC1,i,i
Cc1cc(C)nc(-n2cc(C(=O)c3cc(F)ccc3O)cn2)n1,i,i
COC(=O)CSc1nnc(-c2cccc(NC(=O)c3ccc(C)cc3)c2)n1C,i,i
COC(=O)[C@H](Cc1ccccc1)NC(=O)NCc1ccccc1OC,i,i
CCNc1ccc(C(=O)OCC(=O)c2cc(C)n(Cc3ccc4c(c3)OCO4)c2C)cc1[N+](=O)[O-],i,i

New compounds follow:
Compound,CHT allo act,CHT block
CCOC(=O)/C(=C/Nc1ccccc1)[N+](=O)[O-],i,i
NC(=O)COC(=O)c1ccc2noc(-c3ccccc3)c2c1,i,i
CCn1cc(C(=O)O)c(=O)c2cc3c(cc21)OCO3,i,i
COC(=O)[C@@H]1C[C@@]2(O)[C@H](O)[C@H](O)[C@H](O)C[C@H]2N1Cc1cc(F)ccc1F,i,i
O=S1(=O)N[C@@H](CC2=CCCCC2)C2CCCCC2O1 (stereo not given in full),i,i
O=C(OCC(=O)N1CCOCC1)c1ccccc1Br,i,i
CC(=O)Nc1cc2cc(NS(=O)(=O)c3ccc(C)cc3)ccc2oc1=O,i,i
CCOC(=O)c1c(NC(=O)CCS(=O)(=O)c2ccccc2)sc2c1CCN(C(C)C)C2,i,i

(more compounds)
Compound,CHT allo act,CHT block
COc1cc(-c2n[nH]c(=S)n2-c2ccc(Br)cc2)cc(OC)c1OC,i,i
Cc1c(OCC(=O)N2C[C@H]3C[C@@H](C2)c2cccc(=O)n2C3)ccc2c3c(c(=O)oc12)CCCC3,i,i
O=C(COc1ccc(C2SCCS2)cc1)Nc1ccc(Cl)cc1,i,i
CCCCCCn1c(SCC(=O)Nc2cc(C)on2)nc2ccccc2c1=O,i,i
CCc1ccc(-c2cc(C(=O)NCCCn3ccnc3)c3ccccc3n2)s1,i,i
COC(=O)C1=C(C)N(Cc2ccco2)C(=O)N[C@@H]1c1cccc(C(F)(F)F)c1,i,i
Cc1ccc(-c2ncccc2OC(=O)C23CC4CC(CC(C4)C2)C3)cc1,i,i
CC(C(=O)NCCN1C(=O)S/C(=C\c2cccnc2)C1=O)N1C(=O)c2ccccc2C1=O (stereo not given),i,i

Continuation.
Compound,CHT allo act,CHT block
OC(CC#CCN1CCCCC1)(c1ccccc1)c1ccccc1,i,i
Cc1sc2ncnc(SCC(=O)N3CCCC3)c2c1C,i,i
O=C(COc1ccc2c(-c3ccccc3)cc(=O)oc2c1)N[C@H](Cc1c[nH]c2ccccc12)C(=O)O,i,i
COc1ccc(CNc2ncc(-c3ccc(F)cc3)n2C)cc1OC,i,i
Fc1ccc(C(c2nnnn2Cc2cccs2)N2CCN(C3CCCCC3)CC2)cc1 (stereo not given),i,i
N#CCCN(C(=O)c1ccco1)c1ccccc1,i,i
Cc1ccc([N+](=O)[O-])cc1S(=O)(=O)N1CCNCC1,i,i
COc1ccc(C)cc1S(=O)(=O)Nc1ccc(F)cc1,i,i

(continued)
Compound,CHT allo act,CHT block
COc1ccc2c(c1)c(CC(=O)Nc1nnc(C3CC3)s1)c(C)n2C(=O)c1ccc(Cl)cc1,i,i
Cc1ccc(OCC(=O)Nc2ccccc2C(=O)N2CCCCC2)cc1,i,i
CCOc1cc(CN2CCN(CCOCCO)CC2)ccc1OC,i,i
Nc1cc(C(F)(F)F)ccc1OCC1CCCO1 (stereo not given),i,i
Cc1ccc(NC(=O)N2CCCC2C(=O)NCC2CCCO2)cc1 (stereo not given),i,i
O=C(N/N=C/c1ccc(F)cc1)c1ccc(Br)cc1,i,i
CN1CCN(S(=O)(=O)c2cccc(C(=O)Nc3nccs3)c2)CC1,i,i
COc1cccc(CNC(=O)c2ccc(OC)c(S(=O)(=O)NC3CCCC3)c2)c1,i,i

Next part
Compound,CHT allo act,CHT block
COC(=O)c1cc(CNC(=O)CC(C)c2ccccc2)ccc1OC (stereo not given),i,i
O=C(NCCCl)NNC(=O)c1cc2ccccc2cc1O,i,i
Cc1ccc(NC(=O)CN2C(=O)S/C(=C\C(=O)Nc3ccc(Cl)cc3)C2=O)cc1,i,i
CCOC(=O)c1cc2c(OC)ccc(OC)c2n1CC(=O)c1ccccc1,i,i
Cc1cc(OCC(O)CN2CCN(C)CC2)ccc1C(C)C (stereo not given),i,i
COc1ccc(CN2C(=O)COc3ccccc32)cc1,i,i
CCN1CCN(C(=O)/C=C/c2ccc(C(C)C)cc2)CC1,i,i
CCCC(C)NC(=O)C1CCN(S(=O)(=O)c2ccccc2)CC1 (stereo not given),i,i

Continued.
Compound,CHT allo act,CHT block
Cc1cccc(CS(=O)(=O)Cc2ccc(C(=O)NCc3cccs3)o2)c1,i,i
C#CCOC(=O)Nc1cc(C)n(-c2ccccc2)n1,i,i
C/C(=N\NC(N)=S)C1(C)CCCCC1,i,i
CC(C)c1csc(CN2CCC(N3CCC(C(=O)NCC4CCCO4)CC3)CC2)n1 (stereo not given),i,i
CCCC(=O)Nc1cc(C(=O)O)ccc1S(=O)(=O)c1ccc(C)cc1,i,i
CCOC(=O)C1(CC2CCCCO2)CCN(Cc2ccc(OC)cc2F)CC1 (stereo not given),i,i
Cc1cc(C)c(C(=O)C(C)OC(=O)C2=COCCO2)cc1C (stereo not given),i,i
CC(C)CN(CCNC(=O)CC1Oc2ccccc2NC1=O)CC(C)C (stereo not given),i,i

Following part.
Compound,CHT allo act,CHT block
Cc1ccc(C2NC(C(=O)O)CS2)cc1 (stereo not given),i,i
CC(=O)OC(C(=O)Nc1nccs1)c1ccccc1 (stereo not given),i,i
COc1ccc(S(=O)(=O)N2CCC(C(=O)OCC(=O)c3ccccc3)CC2)cc1[N+](=O)[O-],i,i
COc1cc(NC(=O)c2cccs2)cc(OC)c1,i,i
CCOC(=O)CSc1nc2cc(C(=O)NCc3ccco3)ccc2c(=O)n1-c1ccc(F)cc1,i,i
Cc1cc(C)c(C(N)=O)c(Nc2cccc(Cl)c2C)n1,i,i
O=C(NC1=NN(c2ccccc2)CC1)Nc1ccccc1F,i,i
CSc1ccc(S(=O)(=O)NCCSC(C)(C)C)cc1,i,i

Further records follow:
Compound,CHT allo act,CHT block
CCC(C)(C)NC(=O)CC(c1ccc(OC)cc1)n1cccc1 (stereo not given),i,i
C#CCn1c(=NC(=O)c2cccs2)sc2cccc(OC)c21,i,i
O=C1OCCC1Sc1nc2ccccc2[nH]1 (stereo not given),i,i
Cc1cc(NC(=O)C2CC(=O)N(c3ccc(F)cc3)C2)no1 (stereo not given),i,i
CN(C(=O)CN1C(=O)S/C(=C\c2ccc(F)cc2)C1=O)C1CCS(=O)(=O)C1 (stereo not given),i,i
CCC(C)(C)C(=O)Nc1cc([N+](=O)[O-])ccc1F,i,i
NS(=O)(=O)c1ccc(CCNC(=O)CN2CCC(Cc3ccccc3)CC2)cc1,i,i
O=C(O)CCc1ccc(-c2ccc(Cl)cc2)n1CC(=O)Nc1ccccc1,i,i
Cc1ccccc1C(=O)Nc1ccccc1NC(=O)c1ccccc1Br,i,i
COc1cc(NC(=S)N2CCN(C(=O)c3ccco3)CC2)c(OC)cc1Cl,i,i
